SARS PLP yeast: blocks SARS-CoV papain-like protease in a yeast assay; AID 485353; S. cerevisiae expressing SARS-CoV PLpro, growth rescue; control for the full effect not named in the record; 330,000 compounds, 0.19% hits; Potency, µM (titrated, usually from 32.9 µM), for inactives: at the highest dose activity, positive = growth rescue; note: 0% is about no effect; nearly all actives have a fitted effect of over 55% in size; growth read by luminescence after 48 h
Cruzain Triton: inhibitors of Trypanosoma cruzi cruzain with detergent | P25779 | purified cruzain, Z-FR-AMC fluorescence, 0.01% Triton | Potency, µM, for inactives: max response, negative = inhibition, hits mostly inhibitors | 200,000 compounds, 0.43% hits | AID 1478; active = well fitted curve in the direction sought with a large enough effect; inconclusive = small, poorly fitted or top-dose-only effect, or another doubt; inactive = no such curve, though single readings can be large; an effect the other way counts as inactive or inconclusive;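 note: plate controls were neutral wells for no effect and buffer without enzyme for full effect; nearly all actives have a fitted effect of over 40% in size; top concentration of the series not given in the record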
Target sequence (P25779 123-467 limits assumed): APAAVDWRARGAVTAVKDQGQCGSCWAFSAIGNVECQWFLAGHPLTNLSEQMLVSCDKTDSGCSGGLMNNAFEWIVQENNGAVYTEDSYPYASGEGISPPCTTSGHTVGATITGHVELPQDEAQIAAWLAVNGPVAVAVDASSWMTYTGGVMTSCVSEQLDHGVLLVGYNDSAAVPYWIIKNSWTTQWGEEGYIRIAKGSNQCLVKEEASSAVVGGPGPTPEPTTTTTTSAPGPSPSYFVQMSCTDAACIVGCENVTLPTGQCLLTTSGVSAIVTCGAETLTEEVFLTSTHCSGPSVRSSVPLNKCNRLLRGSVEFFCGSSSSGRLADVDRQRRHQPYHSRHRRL
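Compounds were screened in titration against cruzain (1.5 nM) with 0.01% Triton X-100 to counter colloidal aggregation. Activity was the AMC fluorescence increase over 60 s after adding 2 uM Z-FR-AMC at pH 5.5.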
RE007 growth inh: less growth of the S. pombe RE007 Vpr strain. S. pombe RE007 Vpr strain, BacTiter-Glo ATP luminescence, 24 h; control for the full effect not named in the record. Potency, µM (doses to about 92.2 µM), inactives show at the highest dose activity change, negative = less growth. 360,000 compounds, 0.21% hits; active = well fitted falling curve with a large enough effect; inconclusive = small, poorly fitted or top-dose-only effect; inactive = no such curve, though single readings can be large or run the other way;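 note: % is set by controls: 0 for no effect and ±100 for the full control effect; nearly all actives have a fitted effect of over 50% in size; the assay follows cell death caused by Vpr and the record does not say whether a fall means rescue or toxicity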
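Fission yeast RE007 carrying one integrated HIV-1 vpr copy, seeded at OD 0.01 in PMG+AL medium with 23 nL pinned compound. Grown 24 h at 30 degrees; viability read by BacTiter-Glo luminescence after 5 min.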
LASV entry inh: blocks Lassa virus binding to or entry into cells | Lassa virus pseudotype entry inhibition, cell reporter; control for the full effect not named in the record | Potency, µM (titrated, usually from 37.9 µM), without a hit: top-dose activity change, negative = inhibition, actives largely listed as inhibitors | 300,000 compounds, 1.2% hits | AID 540256; active means well fitted inhibition curve with a large enough effect; inconclusive means small, poorly fitted or top-dose-only effect, or effect the other way; inactive means flat fitted curve, though single readings scatter; tested in HEK293 cells; note: % is set by controls: 0 for no effect and ±100 for the full control effect; nearly all actives have a fitted effect of over 50% in size; luciferase read-out
2A StopGo: FMDV 2A StopGo reporter, luciferase signal | human cells with a luciferase reporter of 2A StopGo recoding; control for the full effect not named in the record | Potency, µM (top dose mostly 57.9 µM), without a hit: top-dose signal change, negative = less light | 410,000 compounds, 1.2% hits; active = well fitted falling curve with a large enough effect; inconclusive = small, poorly fitted or top-dose-only effect; inactive = no such curve, though single readings can be large or run the other way; tested in HEK293T cells; note: % is set by controls: 0 for no effect and ±100 for the full control effect; nearly all actives have a fitted effect of over 45% in size; luciferase light after 4 h
MARV entry inh: inhibitors of Marburg virus binding or cell entry; AID 540276; Potency, µM (titrated, usually from 37.8 µM), for inactives: top-dose activity change, negative = inhibition, usual class: inhibitors; 300,000 compounds, 1.8% hits; Marburg virus pseudotyped entry inhibition, cell reporter; control for the full effect not named in the record; about a third of the inactives were read at about 46 µM; active = well fitted inhibition curve with a large enough effect; inconclusive = small, poorly fitted or top-dose-only effect, or effect the other way; inactive = flat fitted curve, though single readings scatter; tested in HEK293 cells; about a fifth of its hits are not listed in these tables; note: % is set by controls: 0 for no effect and ±100 for the full control effect; luciferase read-out
Cruzain noTriton: cruzain (T. cruzi) inhibition without detergent | 200,000 compounds, 2.3% hits | purified cruzain, Z-FR-AMC fluorescence, no detergent | AID 1476 | P25779 | Potency, µM, for inactives: max response, negative = inhibition, hits mostly inhibitors; active = well fitted curve in the direction sought with a large enough effect; inconclusive = small, poorly fitted or top-dose-only effect, or another doubt; inactive = no such curve, though single readings can be large; an effect the other way counts as inactive or inconclusive;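 note: plate controls were enzyme without inhibitor for no effect and buffer without enzyme for full effect; nearly all actives have a fitted effect of over 40% in size; top concentration of the series not given in the record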
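Purified cruzain at 1.5 nM, pre-incubated 15 min with compound at room temperature in 100 mM sodium acetate pH 5.5, 5 mM DTT, 0.00005% Triton X-100. Reaction started with 2 uM Z-FR-AMC; AMC fluorescence increase over 60 s gives rate.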
NS1 inh: inhibitors of influenza NS1 protein function. 270,000 compounds, 0.4% hits. S. cerevisiae slowed by influenza A NS1, growth recovery by OD600. Potency, µM (titrated, usually from 46.1 µM), for inactives: top-dose activity, positive = more growth; note: actives are rising curves; nearly all actives have a fitted effect of over 50% in size
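Compounds were scored for reversing the slow growth caused by influenza A NS1 in S. cerevisiae, measured by optical density at 600 nm. Assay medium contained 2% galactose at pH 6.0; NS1-free yeast of the same strain were the positive control.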
Starred values were filed as active, the others as inactive; ? = inconclusive; · = not tested or not shown; & = joins results of further samples; [ ] = remark or other dose. Unless noted, calls come from the whole dose curve; as a rule, active means well fitted rising curve with a large enough effect; inconclusive means small, poorly fitted or top-dose-only effect; inactive means no such curve, though single readings can be large or run the other way. Potency is the fitted concentration of half-maximal effect.

#	smiles	SARS PLP yeast	Cruzain Triton	RE007 growth inh	LASV entry inh	2A StopGo	MARV entry inh	Cruzain noTriton	NS1 inh
1	CN1C(C(=O)c2ccccc2)=C(N)c2ccccc2S1(=O)=O	0%	·	1%	-5%[46.1 µM]	11%	-7%[46.1 µM]	·	-36%
2	Cc1cccc(C)c1NC(=O)CN1CCN(C(=O)c2ccc(OCc3cn4ccccc4n3)cc2)CC1	-1%	·	-12%	4%[46.1 µM]	-12%	-7%[46.1 µM]	·	·
3	COC(=O)CN1C(=O)C(O)(CC(=O)c2ccc(C)cc2)c2ccccc21 (stereo not drawn)	1%	6.1%	-1%	-5%	0%	35%	-1%	-6%
4	O=C(N1CCOCC1)N1CCN(S(=O)(=O)c2ccc(Cl)cc2)CC1	2%	·	7%	·	-12%	·	·	-12%
5	O=C(CCCOc1ccc(Cl)cc1Cl)Nc1ccccc1C(=O)O	2%	·	10%	?	-14%	3.2µM*	·	-2%
6	N=C1C(c2nc3ccccc3[nH]2)=C(O)CN1C1CCCCC1	-3%	·	2%	15%	59%[activator]	17%	·	-4%
7	CN(C)CC(=O)Nc1nc(-c2ccccc2)cs1	0%	0.4%	21%	-18%	28%	15%	-2%	-6%
8	O=C(NCc1ccc(Cl)cc1Cl)c1ccc2nc[nH]c2c1	29%	-9.1%	6%	-4%	-5%	3%	-2%	19%
9	COc1ccccc1NC(=O)COc1ccc(C(=O)NC2CCCc3ccccc32)cc1OC (stereo not drawn)	-3%	·	3%	-28%	-1%	?	·	-9%
10	CCOC(=O)C1CCc2sc(N)c(C#N)c21 (stereo not drawn)	2%	1.8%	0%	-11%	·	2%	-3%	?
11	CN(C)CCCOc1ccc2c(c1)Sc1ccccc1CC2=O	21%	1.8%	-11%	10%	-18%	?	-13%	13%
12	O=C(Nc1c2c(nn1-c1cccc(Cl)c1)CS(=O)(=O)C2)C1CC1	?	·	7%	?	-18%	1%	·	4%
13	Cc1csc2nc(COc3ccc(NC(=O)C(C)C)cc3)cc(=O)n12	·	-2.3%	·	23%[46.1 µM]	4%	?	13%	·
14	COC(=O)[C@H](Cc1ccccc1)NC(=O)NCc1ccccc1OC	3%	4.6%	-7%	-3%	19%	?	-3%	-3%
15	Cc1ccc(CSCc2ccc(C(=O)NC3CC3)o2)cc1	-5%	·	27%	·	-20%	·	·	-26%
16	CCNc1ccc(C(=O)OCC(=O)c2cc(C)n(Cc3ccc4c(c3)OCO4)c2C)cc1[N+](=O)[O-]	8%	-2.7%	-1%	3%	-20%	7%	16µM*	17%
17	Fc1ccc(COc2ccc(Cl)cc2/C=N/Nc2nc(N3CCCC3)nc(N3CCCC3)n2)cc1	1%	-1.7%	0%	-6%	-14%	-24%	5µM*	5%
18	COc1ccc(-c2nc3cc(NC(=O)COc4ccc(C)c(C)c4)ccc3o2)cc1	·	-0.8%	·	30%[46.1 µM]	26%	?	-3%	·
19	O=C(Nc1cc(Oc2ccccc2)cc([N+](=O)[O-])c1)C12CC3CC(C1)CC(n1cnc(Cl)n1)(C3)C2	0%	6.5%	17%	?	-18%	?	?	2.2µM*
20	CCSc1nnc(NC(=O)c2cc3c(s2)CCCC3)s1	1%	9.2%	-13%	?	81%[activator]	24%	7.9µM*	7%
21	Clc1ccc(OCCCN2CCc3ccccc3C2)c(Br)c1	?	·	-8%	·	1%	·	·	-42%
22	Cc1c(C(=O)NC2CCCc3ccccc32)oc2ccc(S(=O)(=O)N3CCOCC3)cc12 (stereo not drawn)	-18%	-1.2%	9%	-24%	-27%	?	-10%	-43%
23	COCCNC(=O)CN1C(=O)CSc2ccc(S(=O)(=O)N3CCOCC3)cc21	-3%	·	7%	·	-11%	·	·	1%
24	CC(=O)Nc1ccc(S(=O)(=O)Oc2cccc(/C=C3\SC(N)=NC3=O)c2)cc1	-4%	·	1%	-29%	?	·	·	·
25	COc1ccccc1N1CCN(C(CNS(=O)(=O)c2ccccc2)c2cccnc2)CC1 (stereo not drawn)	5%	1.3%	-2%	4%	-12%	-18%	0%	-4%
26	Cc1cc(C)c(Cn2c(=O)n(Cc3ccccc3)c(=O)c3c(C)c(C)sc32)c(C)c1	·	-3.1%	·	6%[46.1 µM]	-17%	-24%[46.1 µM]	-4%	·
27	O=C(CCCCCN1C(=O)c2ccccc2C1=O)Nc1nccs1	-8%	-7.7%	32%	1%	-27%	-7%	-9%	16%
28	Cc1ccc(CNC(=O)CCC(=O)n2ncc3cc(C)ccc32)cc1	-6%	·	-10%	·	-14%	·	·	7%
29	CC(C)(C)Cc1nnc(NC(=O)c2ccc([N+](=O)[O-])cc2)s1	?	-1.5%	3%	?	54%[activator]	16%	-14%	4%
30	OCC1(CCc2ccccc2)CCN(Cc2cc(F)ccc2-n2cccn2)CC1	0%	·	-11%	·	-20%	·	·	-5%
31	O=C(O)c1[nH]c2ccccc2c1C(c1cc(Br)ccc1O)c1c(C(=O)O)[nH]c2ccccc12	8%	·	10%	·	3%	·	·	18%
32	O=C(Cn1nc(Cc2cccnc2)c2ccccc2c1=O)NCC1COc2ccccc2O1 (stereo not drawn)	3%	0.9%	-11%	·	-24%	·	-6%	-16%
33	Cc1ccc(C(C(=O)NC2CCCCC2)N(Cc2ccco2)C(=O)C2COc3ccccc3O2)o1 (stereo not drawn)	-1%	-0.6%	-11%	-4%	-26%	?	-4%	11%
34	COc1cc(Cl)c(NC(=O)c2cc3ccccn3n2)c(OC)c1	·	-6.9%	·	-9%[46.1 µM]	31%[activator]	·	0%	·
35	CC(=O)C(C(C)=O)c1cc(NS(=O)(=O)c2ccccc2)ccc1NS(=O)(=O)c1ccccc1	-5%	·	-23%	?	-3%	-11%[46.1 µM]	·	7%
36	Cc1cc(O)c(C(c2ccccc2)N2CCN(c3ccccc3)CC2)c(=O)n1Cc1ccco1 (stereo not drawn)	·	-0.1%	·	11%[46.1 µM]	-25%	·	?	·
37	Cc1c(-n2c(-c3ccccc3)nc3ccccc3c2=O)c(=O)n(-c2ccccc2)n1C	0%	·	11%	-17%	-9%	-16%	·	2%
38	CCC(OC(=O)C(C)N1C(=O)C(=O)c2ccccc21)C(=O)Nc1ccccc1OC (stereo not drawn)	7%	·	-6%	?	-4%	?	·	25%
39	O=C(N/C(=C/c1cccnc1)C(=O)N1CCOCC1)c1ccco1	2%	-3.5%	13%	0%	-15%	-3%	14%	14%
40	Cc1ccc2oc(C(=O)N3CCC(O)(c4cccc(C(F)(F)F)c4)CC3)c(C)c2c1	-12%	·	0%	6%[46.1 µM]	5%	?	·	-65%
41	CN(C)c1cc[n+](CC(=O)Nc2ccc(OC(F)F)cc2)cc1	0%	·	-14%	-16%[46.1 µM]	?	?	·	-1%
42	O=C(COc1cccc2cccnc12)N/N=C1\SCC(=O)N1Cc1ccccc1	0%	7.5%	-2%	12%	-26%	-8%	4%	-3%
43	O=C(OCC(=O)N1CCOCC1)c1ccccc1Br	2%	·	9%	18%[46.1 µM]	26%	?	·	1%
44	COc1ccc(OC)c(NC(=S)NCCCN2CCOCC2)c1	3%	0.8%	-5%	26%	-17%	10%	6%	3%
45	Cc1ccc(-n2c(Cc3cccn3C)nnc2SCC(=O)Nc2cc(C)on2)cc1	3%	3.9%	-14%	-22%	-13%	-1%	2%	-6%
46	O=S(=O)(c1ccccc1)c1nc(NCc2cccnc2)sc1Cl	0%	·	-3%	?	-21%	-14%[46.1 µM]	·	·
47	CCN(CC)C(=O)c1ccc(-c2ccccc2)cc1	6%	-2.8%	-8%	1%	24%	?	11%	-27%
48	O=C(CSc1ccc([N+](=O)[O-])cn1)Nc1nccs1	?	·	6%	·	7%	·	·	4%
49	COc1ccc(-c2cc(C(=O)Nc3c(C(=O)c4ccc(C)cc4)oc4ccccc34)no2)cc1	·	-0.8%	·	-1%[46.1 µM]	-11%	20%[46.1 µM]	-9%	·
50	CC(C)N(Cc1ccccc1)C(=S)Nc1ccccc1F	1%	·	-2%	?	26%	?	·	-1%

Other compounds:
#	smiles	SARS PLP yeast	Cruzain Triton	RE007 growth inh	LASV entry inh	2A StopGo	MARV entry inh	Cruzain noTriton	NS1 inh
51	O=C(CCN1C(=O)[C@@H]2Cc3ccccc3CN2C1=O)Nc1cccc(F)c1	-3%	·	14%	·	-18%	·	·	-2%
52	CS(=O)(=O)c1ccc(C(=O)NC2CCOC2=O)cc1 (stereo not drawn)	2%	3.2%	2%	-8%	1%	11%	-2%	-1%
53	Cc1ccc(-n2ncc3c(SCc4cccc(C)c4)ncnc32)cc1	2%	-1.8%	5%	2%	8%	?	-19%	15%
54	C/C(N)=C(/C#N)C(=O)CSc1nnc(Nc2cccc(C)c2)s1	19%	-5.4%	2%&-7%	?	93%&53%[activator]	17%&-1%	6%	-1%
55	CC1CCN(C(=O)COC(=O)/C=C/c2ccc([N+](=O)[O-])cc2)CC1	-1%	·	-28%	-12%[46.1 µM]	-1%	-20%[46.1 µM]	·	·
56	CCn1c(=O)c(=O)[nH]c2cc(C(=O)N3CCN(Cc4ccc5c(c4)OCO5)CC3)ccc21	1%	·	11%	·	-9%	·	·	-1%
57	CC(=O)Nc1cc2cc(NS(=O)(=O)c3ccc(C)cc3)ccc2oc1=O	0%	·	0%	-17%[46.1 µM]	-6%	?	·	5%
58	Cc1cc(C)cc(CC2CC(=O)N(c3ccc([N+](=O)[O-])cc3)C2=O)c1 (stereo not drawn)	-5%	·	18%	3%[46.1 µM]	-12%	4%[46.1 µM]	·	-21%
59	COc1ccc(C(C)=O)cc1COC(=O)c1c(C)noc1C	-1%	-11%	-9%	-20%	0%	?	-13%	-16%
60	O=C(NCC1CCCCC1)C12CN(Cc3ccccc3)CC1C(c1cccc([N+](=O)[O-])c1)=NO2 (stereo not drawn)	-7%	-3.4%	-9%	·	1%	1%	?	23%
